# Sa helicase inh – S. aureus DNA helicase inhibition; purified S. aureus helicase, fluorescence unwinding assay; about half of the hits fall short of the stated cut; inhibition, %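 (tested at about 80 µM)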; actives 0.05% (n = 120,000); AID 485395;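 active = both duplicates at 50% or more, or one of them with a favoured structure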;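 also: 0% = mean of negative control wells and 100% = mean of positive control wells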
# MgrA DNA FP – modulators of Staphylococcus aureus MgrA DNA binding; fluorescence polarization; AID 602314; actives 0.13% (n = 84,000); inhibition, %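 (about 10 µg/mL by stock and volumes)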;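 active = above 50% in either of two replicates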;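 also: 0% = protein plus DNA without compound and 100% = DNA alone without protein; higher means less MgrA bound to DNA so lower polarization; one replicate is shown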
# * = called active by the depositor; · = not tested or not shown. Not all compounds are listed. The share of hits here may be higher or lower than overall.
Sa helicase inh	MgrA DNA FP	SMILES
-15.0	·	C=CCn1c(SCC(N)=O)nnc1-c1cccs1
13.0	-0.5	CCC(=O)N1CCc2cc(S(=O)(=O)NC(CC(C)C)C(=O)NC3CCCC3)ccc21 (stereo unspecified)
8.0	-0.3	Cc1ccc(NC(=S)Nc2ccc(N3CCOCC3)cc2)cc1C
·	0.8	COc1ccc(-c2ccc(/C=c3\sc4nc5cc(C)c(C)cc5n4c3=O)o2)c([N+](=O)[O-])c1
4.0	-0.9	Fc1ccc(C=Nc2ccc3ccccc3c2)cc1
-4.0	·	Cc1ccc(NC(=O)COc2ncnc3c2cnn3-c2ccccc2)cc1
10.0	3.4	O=C(CSc1nc(-c2ccccc2)[nH]c1-c1ccccc1)Nc1ccccc1
-16.0	·	O=c1[nH]c(=S)[nH]c2[nH]c(=S)[nH]c12
-1.0	·	Cc1noc(C)c1COC(=O)c1ccc(S(=O)(=O)C(F)F)cc1
21.0	18.7	O=C(O)c1cccc(N=Nc2sc3ccccc3c2O)c1
-33.0	·	Cc1ccc(S(=O)(=O)C(CC(=O)c2ccc(F)cc2)c2ccco2)cc1 (stereo unspecified)
14.0	1.7	N=C1/C(=C/c2cccs2)C(=O)N=C2SC=C(c3ccccc3)N12
9.0	0.5	CC(C)NC(=O)CCn1c(=O)oc2ccccc21
·	-4.2	O=C(C1CCCCC1)N1CCN(S(=O)(=O)c2ccc(Cl)cc2Cl)CC1
2.0	·	COc1cc(CCC(=O)NCC(c2ccc(F)cc2)N2CCOCC2)cc(OC)c1OC (stereo unspecified)
9.0	·	CCc1nnc2c3c4c(sc3nc(C)n12)CCC4
9.0	2.0	Cc1ccc(OCC(=O)Nc2ccc(-c3nn4c(C)nnc4s3)cc2)cc1
-2.0	-2.0	Cc1nn(-c2ccccc2)c2sc(C(N)=O)cc12
20.0	·	CCCNC(=O)c1ccc(CS(=O)Cc2cccc(Cl)c2)o1 (stereo unspecified)
-1.0	-4.7	N#Cc1c(SCC(=O)NCCc2ccccc2)sc2c(=O)[nH]c(=O)[nH]c12

# Single records, as listed above:
# Entry for `O=c1[nH]c(=S)[nH]c2[nH]c(=S)[nH]c12` = Sa helicase inh = -16.0; MgrA DNA FP = ·
# Entry for `Cc1ccc(OCC(=O)Nc2ccc(-c3nn4c(C)nnc4s3)cc2)cc1` = Sa helicase inh = 9.0; MgrA DNA FP = 2.0
# Entry for `COc1ccc(-c2ccc(/C=c3\sc4nc5cc(C)c(C)cc5n4c3=O)o2)c([N+](=O)[O-])c1` = Sa helicase inh = ·; MgrA DNA FP = 0.8

# (listing goes on)
Sa helicase inh	MgrA DNA FP	SMILES
8.0	1.0	COc1ccc2cc(CCNC(=O)c3ccccc3)c(=O)[nH]c2c1
13.0	0.4	Cc1ccc2c(c1)sc1ncc(S(=O)(=O)c3ccc(F)c(Cl)c3)c(=O)n12
-12.0	·	Cc1cc(C)n2c(Br)c(CN3CC(C)CC(C)C3)nc2n1 (stereo unspecified)
17.0	·	CCOC(=O)c1c(CS(=O)Cc2ccc(Cl)cc2)oc2c(F)c(F)c(F)c(F)c12 (stereo unspecified)
16.0	·	CN(CC1CCCO1)C1CCN(C(=S)Nc2cc(F)cc(F)c2)CC1 (stereo unspecified)
-6.0	·	CCn1c(-c2ccc(N)cc2)nc2ccccc21
17.0	-0.7	O=C(O)c1ccccc1NCCc1ccc(F)cc1
3.0	-1.2	Cc1ccc(NC(=O)CC(NCCN2CCOCC2)C(=O)O)cc1Cl (stereo unspecified)
7.0	·	CS(=O)(=O)c1ccc(Cl)c(S(C)(=O)=O)c1
·	0.7	CC1CCC(C(C)C)C(NC(=O)c2cccc3ccccc23)C1 (stereo unspecified)
·	-1.4	Clc1ccc(-c2noc(C3CCc4ccccc4O3)n2)cc1 (stereo unspecified)
6.0	-0.8	CCOC(=O)c1cc(-c2ccccc2)n(CC(=O)N2CCCCCC2)c1C
·	-0.6	COc1ccc(OCC(O)CNC(=O)C2CCC2)cc1 (stereo unspecified)
-13.0	·	O=c1[nH]c2ccc3nsnc3c2[nH]c1=O
·	0.0	COc1ccccc1C1CCN(C(=O)c2ccc(C(C)(C)C)cc2)CC1
12.0	·	CN1CCN(S(=O)C23CC4CC(CC(C4)C2)C3)CC1 (stereo unspecified)
5.0	·	CC1(C)C=C(C(=O)N2CCCCC2)C(C)(C)N1
·	2.3	Cc1ccc2c(nc3s/c(=C/c4cc([N+](=O)[O-])c(N5CCOCC5)cc4N4CCOCC4)c(=O)n32)c1C
14.0	0.5	Cc1ccc(Cl)cc1N/C=C/C(=O)C(C)(C)C
-18.0	·	COc1cc(CN(CC2CCCO2)C(=O)c2ccco2)cc(OC)c1OC (stereo unspecified)

Sa helicase inh	MgrA DNA FP	SMILES
2.0	-0.6	O=C(O)C(Cc1ccc(F)cc1)c1ccccc1 (stereo unspecified)
-1.0	·	Cc1ccc(F)cc1NC(=O)CNC(N)=O
-2.0	·	Fc1ccc2nc(N3CCc4ccccc4C3)sc2c1
16.0	0.6	CCNC(=S)NCc1ccc2c(c1)OCO2
10.0	·	CC(Sc1nnc(-c2ccco2)n1Cc1ccccc1)C(=O)NC1CCCC1 (stereo unspecified)
0.0	0.9	CC(=O)N(Cc1ccccc1C)c1cccc(C)c1C
-1.0	·	CC(/C(=N/O)c1ccccc1)N1CCC(O)O1 (stereo unspecified)
·	-0.3	O=C(CCCN1CCC(O)(c2ccc(Br)cc2)CC1)c1ccc(F)cc1
-1.0	·	O=c1cc(CN2CCOCC2)nc2sccn12
-13.0	1.0	Cc1ccc(OCCCn2cnc3ccccc32)cc1
1.0	-2.5	CCC(C(=O)Nc1ccccc1F)n1c(SCc2ccc(F)cc2)nc2ccncc21 (stereo unspecified)
5.0	-2.2	CC(C)N(Cc1ccccc1)C(=O)COc1ccccc1
·	-2.8	OCCN(CCO)c1cccc(Cl)c1
·	0.1	COCc1cc(=O)n2[nH]c(Nc3cc(Cl)ccc3C)nc2n1
-4.0	-0.9	O=C1NCCCc2nc(N3CCCCC3)sc21
8.0	·	O=C(CCCN1C(=O)CSc2ncccc21)N1CCN(c2ccccn2)CC1
-3.0	-1.2	O=C(O)CSCC(=O)N1CCCCC1
·	-1.8	CCOC(=O)c1cnc2cc(-c3ccc(C(C)(C)C)cc3)[nH]n2c1=O
5.0	-1.7	Nc1ccc(C(=O)CC(=O)Nc2ccc(Cl)cc2)cc1
-5.0	·	C/C(=N\O)C1(C)N(O)C(C)(C)C(c2cccs2)=[N+]1[O-] (stereo unspecified)

Sa helicase inh	MgrA DNA FP	SMILES
3.0	0.3	Cc1ccc(N2CCN(C(=O)c3cccs3)CC2)cc1C
·	-1.2	CC(c1ccco1)N(C(=O)c1sc2ccccc2c1Cl)c1ccccn1 (stereo unspecified)
-23.0	·	c1ccc(-c2nc(CSc3nc4ccccc4[nH]3)c(CSc3nc4ccccc4[nH]3)o2)cc1
-12.0	·	CSc1nnc(-c2cccs2)n1-c1ccccc1
·	2.5	O=C(c1cc2cc(Br)ccc2oc1=O)N1CCSC1c1cccc(Cl)c1 (stereo unspecified)
-9.0	5.2	COc1ccc(-c2n[nH]c(=S)n2/N=C/c2cccc(OC)c2O)cc1
1.0	·	O=C(Cc1ccccc1)NNc1cccc(Cl)c1
1.0	·	Cc1cc(C)cc(NCCC#N)c1
-11.0	-3.2	Cc1nn(-c2ccccc2)c2oc(=O)c(NC(=O)c3ccc(F)cc3)cc12
-3.0	-1.5	O=C(CSc1cnc2ccccc2n1)NC1CCCC1
-8.0	1.7	CCCC1OC2CC3C4CCC5=CC(=O)C=CC5(C)C4C(O)CC3(C)C2(C(=O)O)O1 (stereo unspecified)
-1.0	·	Cc1oc2cc(O)ccc2c(=O)c1-c1ccccc1
25.0	·	O=C(O)CC(=O)Nc1cc(Cl)ccc1O
19.0	6.3	Oc1ccc(Br)cc1C=NCC1CCCO1 (stereo unspecified)
9.0	·	CCn1c(O)c(/C=N/N=C2/C(=O)N(C)c3ccccc32)c(=O)n(CC)c1=S
46.0*	9.4	c1cc2cc(C3=NCCN3)ccc2cc1C1=NCCN1
·	-0.1	FC(F)(F)c1cccc(NC(=S)N(CCc2ccccc2)CCc2ccccn2)c1
·	0.6	O=[N+]([O-])c1cc(C(F)(F)F)ccc1OCCO
4.0	·	C=CCN(C(=O)CN1CCOCC1)c1nc(C)c(-c2ccccc2)s1
14.0	·	NC(=O)C1(c2ccccc2)CCOCC1

Sa helicase inh	MgrA DNA FP	SMILES
9.0	3.3	CC1CC(C)CN(CCCN)C1 (stereo unspecified)
·	-3.0	COC(=O)c1scc2c(Sc3nccn3C)cc(C(F)(F)F)nc12
4.0	-1.9	CC1CN(C(=O)CCS(=O)(=O)c2ccccc2)CC(C)O1 (stereo unspecified)
-11.0	-2.8	Cc1cc(C(F)(F)F)c2c(n1)sc1c(=O)[nH]c(C)nc12
-6.0	2.0	COC(=O)c1ccc(NC(=O)COc2ccccc2)cc1
8.0	·	Fc1ccc(Oc2cnccn2)c(Cl)c1
·	-0.6	O=C(Nc1cccc(Cl)c1)OC1CCCCc2cccnc21 (stereo unspecified)
·	-0.5	COC(=O)c1cc(-c2nc(C)cs2)c(SC)s1
17.0	·	CC(=O)Oc1ccc2c(c1)C(C)=CC(C)(C)N2C(C)=O
17.0	0.3	CC(NS(=O)(=O)c1ccccc1)C(N)=O (stereo unspecified)
15.0	·	O=S(=O)(NCc1cc(F)cc2c1OCOC2)c1ccc(N2CCOCC2)nc1
5.0	1.1	Cc1ccc(CN2C(=O)/C(=C/C(=O)NCCc3ccccc3)Sc3ccccc32)cc1
26.0	·	CC1CCCC(N2CNc3nc4ccccc4n3C2)C1C (stereo unspecified)
-15.0	·	Cc1csc2ncc(C(=O)N(C)Cc3ccccc3)c(=O)n12
-12.0	·	COc1ccc(N=c2scc(C)n2CCCN2CCCC2=O)cc1
6.0	·	Cc1ccc(C)c(-n2c(SCCN)nnc2-c2cccc(Cl)c2)c1
-27.0	·	O=C(Nc1nc(-c2ccccc2)cs1)c1cccc(S(=O)(=O)N2CCCC2)c1
1.0	·	Cn1c(=O)c2nc(-c3nnc4n3CCCCC4)c(N)nc2n(C)c1=O
·	-1.0	CSCC[C@H](NC(C)=O)C(=O)O
13.0	·	Cc1ccccc1NS(=O)(=O)c1ccc(-n2c(=O)n(C)n(C)c2=O)cc1

Sa helicase inh	MgrA DNA FP	SMILES
-21.0	·	C#CC(/C=C/C)OC(=O)c1ccccc1C(=O)O (stereo unspecified)
·	2.3	COc1cc(C2SCc3cc(C)c(C)cc3CS2)cc(OC)c1OC
6.0	·	CC(C)N(C)C1CCN(S(=O)(=O)c2ccc(-c3ccc(=O)[nH]n3)s2)CC1
3.0	·	CCc1ccc(C(N)c2cccc(F)c2)cc1 (stereo unspecified)
-27.0	·	CC(C)OC(=O)c1cccc(C(=O)O)n1
·	5.6	CCOC(=O)c1ccc(NC(=S)NN)cc1
-1.0	·	Cc1c(O)ccc(-c2[nH]ncc2-c2ccccc2)c1O
·	-2.5	O=C(NC1Cc2ccccc2C1)C1CCC1
-13.0	·	O=C(Cn1ncc2c(=O)oc3ccccc3c21)N1CCCCC1
-7.0	·	C/C(=N\NC(=O)c1cccnc1)c1ccc(S(=O)(=O)NCc2ccco2)cc1
-5.0	·	Cc1cc(C)n(-c2ncnc3sc4c(c23)CCC4)n1
8.0	-1.6	COCCN(C(=O)c1ccccc1)c1nnc(-c2ccncc2)s1
7.0	·	CC(C)(C)OC(=O)N1CCC(c2cc(=O)n(-c3ccccc3)[nH]2)CC1
6.0	13.5	Cc1sc(/N=C/c2ccccc2O)c(C#N)c1C
9.0	-0.2	CCN1C(=C(C#N)C#N)C=Cc2ccccc21
8.0	1.9	Cc1cc(C(=O)N(C2CCCCC2)C2CCCCC2)no1
9.0	0.6	O=C(CCS(=O)(=O)c1ccc(Br)s1)NC1CCCC1
·	-1.7	ON=C(Cc1ccccc1)Cc1ccccc1
5.0	-3.0	CCOC(=O)c1ccc(N2N=C(C(F)(F)F)CC2=O)cc1
·	-2.2	CCOC(=O)c1c(-c2ccccc2)oc2c1cc(OC(=O)c1ccc(C)cc1)c1ccccc12

# 4 entries from above, with each value named.
smiles: CC(C)OC(=O)c1cccc(C(=O)O)n1
  Sa helicase inh: -27.0
  MgrA DNA FP: ·
smiles: CCOC(=O)c1ccc(NC(=S)NN)cc1
  Sa helicase inh: ·
  MgrA DNA FP: 5.6
smiles: Cc1c(O)ccc(-c2[nH]ncc2-c2ccccc2)c1O
  Sa helicase inh: -1.0
  MgrA DNA FP: ·
smiles: O=C(NC1Cc2ccccc2C1)C1CCC1
  Sa helicase inh: ·
  MgrA DNA FP: -2.5

# Later entries
Sa helicase inh	MgrA DNA FP	SMILES
·	10.6	COc1ccccc1NC(=O)Oc1ccccc1N1CCCC1
3.0	-0.2	O=C(NCc1ccccc1)c1cc2c(s1)CS(=O)(=O)C2
16.0	·	CN(C)CCNC(=O)c1ccc(N2CCOc3ccccc32)s1
-2.0	·	CC(C)=CC(=O)N1CCN(S(=O)(=O)c2ccc(C)cc2)CC1
-2.0	2.1	O=C(O)c1ccccc1C(=O)Nc1ccccn1
-4.0	0.6	Cc1ccc(S(=O)(=O)C(=O)Nc2cccc3nsnc23)cc1
1.0	-1.0	O=C(O)CCCC(=O)c1ccccc1
·	2.1	Cc1c(C)c(C)c(CSC2=NCN(C)CN2)c(C)c1C
7.0	0.2	CC(=O)Nc1cc(C(F)(F)F)ccc1NC(=O)C(F)(F)F
13.0	1.8	COc1ccc(/C=C2\CCCC3=C2NC(=S)NC3c2ccc(OC)cc2)cc1 (stereo unspecified)
-12.0	·	COc1ccc(-c2nnc(SC(C)C(=O)NC34CC5CC(CC(C5)C3)C4)o2)cc1 (stereo unspecified)
1.0	·	O=C(Cc1ccsc1)OCC(=O)N1CCN(S(=O)(=O)c2ccc(Cl)cc2)CC1
10.0	-6.9	CCS(=O)(=O)N(CC(=O)N1CCCC1)c1ccc(OC)cc1
·	0.8	O=C1c2cccc3cccc(c23)C(=O)N1CCN1CCN(S(=O)(=O)c2cccs2)CC1

# Bioassay records deposited in PubChem BioAssay by ICCB-Longwood Screening Facility, Harvard Medical School.
